PKD1 kinase inh: blocks activity of human protein kinase D1. Q15139. PKD1 kinase fluorescence polarization assay. inhibition, %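 (about 10 µM by stock and volumes)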. 200,000 compounds, 0.056% hits;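 active = inhibition of 50% or more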;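 also: controls were vehicle for no effect and a reference inhibitor for full effect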
RGS16-Gao HTS: modulates binding between human RGS16 and Galphao; O15492+P09471; bead-based flow cytometry RGS16-Galphao binding, fluorescence; actives lie on both sides; binding response (% of control), % at 10 µM; 220,000 compounds, 0.38% hits; AID 1441;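 active = below 25% or above 175%, edge rows of some plates excepted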;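 also: Galphao activated by GDP with aluminum fluoride before binding; 100% = wells without compound and 0% = beads without RGS; some results beyond the cut were filed as inactive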
Target sequence (O15492 whole entry, looked up): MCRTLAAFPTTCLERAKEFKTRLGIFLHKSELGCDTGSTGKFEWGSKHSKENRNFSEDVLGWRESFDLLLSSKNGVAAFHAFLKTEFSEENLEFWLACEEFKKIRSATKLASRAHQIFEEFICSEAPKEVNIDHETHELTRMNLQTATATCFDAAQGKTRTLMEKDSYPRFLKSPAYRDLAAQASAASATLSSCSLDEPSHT
Target sequence (P09471 whole entry, looked up): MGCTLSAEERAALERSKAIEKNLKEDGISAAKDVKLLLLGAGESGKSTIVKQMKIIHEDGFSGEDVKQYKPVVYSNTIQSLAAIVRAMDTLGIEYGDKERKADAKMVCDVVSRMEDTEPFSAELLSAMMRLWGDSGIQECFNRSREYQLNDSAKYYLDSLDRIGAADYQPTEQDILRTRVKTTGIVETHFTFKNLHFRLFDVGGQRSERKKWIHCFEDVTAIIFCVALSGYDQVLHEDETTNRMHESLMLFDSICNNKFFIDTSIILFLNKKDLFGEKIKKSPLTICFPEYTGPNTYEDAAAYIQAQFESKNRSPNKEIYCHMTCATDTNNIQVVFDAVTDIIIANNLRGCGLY
HSV replic up: HSV replication enhancement; HSV replication augmentation in cells, fold increase; maximum fold increase; 220,000 compounds, 0.005% hits;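 active = peak rise of 1.5-fold or more in the series; tested in PC3 cells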;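 also: first round at 10 µM; read as green reporter fluorescence; hits show the peak of a series up to 25 µM; 1 = signal of infected wells without compound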
Insulin prom inh: TRM-6 insulin promoter activity inhibition | TRM-6 cells (human fetal islet line), insulin promoter-eGFP reporter, imaging; reporter expression induced with tamoxifen | 130,000 compounds, 0.9% hits | AID 1273 | inhibition, % at 2 µM;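 active = inhibition above the mean plus 3 SD, with well images judged a real hit on visual review, cut at about 60% in these data, passing the limit was not always enough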
GALR2 ag: GALR2 (human) receptor agonism. O43603. GALR2-expressing cells, agonist activation read-out. activation, %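 (tested at 5 µM)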. 140,000 compounds, 0.48% hits;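 active = above mean plus 3 SD of all compounds, about 5% in these data, not always enough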;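 also: 0% = vehicle buffer wells and 100% = reference agonist at full effect; tested in CHO reporter cells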
Target sequence (O43603 whole entry, looked up): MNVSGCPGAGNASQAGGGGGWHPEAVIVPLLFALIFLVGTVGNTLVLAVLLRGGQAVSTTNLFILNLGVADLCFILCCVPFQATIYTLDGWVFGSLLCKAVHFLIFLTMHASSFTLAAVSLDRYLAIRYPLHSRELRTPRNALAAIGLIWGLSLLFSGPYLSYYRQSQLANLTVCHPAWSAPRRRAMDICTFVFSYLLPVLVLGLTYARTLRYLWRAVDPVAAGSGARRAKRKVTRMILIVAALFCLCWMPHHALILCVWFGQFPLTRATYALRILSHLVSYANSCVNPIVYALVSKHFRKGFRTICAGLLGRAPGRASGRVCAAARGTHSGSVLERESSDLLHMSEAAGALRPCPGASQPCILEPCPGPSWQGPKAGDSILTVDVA
Insulin prom inh cell count: second read-out of Insulin prom inh, no call of its own (marks repeat the call); normalized cell count, %; measured here: cell count, toxicity; reference of the scale not given here;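 cells exposed to compound for 48 h; stained nuclei by imaging scaled within each plate; lower means fewer cells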
HSV replic up primary fold: recorded beside HSV replic up, whose call it bears; fold increase; compound at 10 µM; measured here: primary screen fold increase 10 uM; tested in PC3 cells;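 GFP signal in the first replicate; 1 = infected wells without compound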
* marks the source's active call; other numbers are inactive results; i = inactive; . = no result given. Compounds were not picked by outcome, and some 1.3% of all compounds hit somewhere here.

The opening six records as a preview:
SMILES	PKD1 kinase inh	RGS16-Gao HTS	HSV replic up	HSV replic up primary fold	Insulin prom inh	Insulin prom inh cell count	GALR2 ag
COc1ccc(C2Nc3cccc4cccc(c34)N2)cc1	-4	91	i	0.96	.	.	.
O=C(Nc1ccc(Cl)cn1)Nc1ccccc1Cl	1	104	i	0.84	0	119	-1.0
Cc1cc(Cl)ccc1C(=O)C1CCCN(C(=O)/C=C/c2cnn(C)c2)C1 (centres undefined)	1	102	i	1.1	.	.	.
CCCn1c(CCC(=O)O)ccc1-c1ccc(F)cc1	-12	103	i	1.2	10	204	1.6
O=C(O)c1cccnc1NC1CCCC1	0	110	i	0.92	12	136	-2.8
CCCCCn1c(=O)[nH]c2cc(C(=O)NCCCN3CCCCC3)ccc2c1=O	-4	100	i	0.79	-27	144	-1.4

Main list, repeating the preview:
SMILES	PKD1 kinase inh	RGS16-Gao HTS	HSV replic up	HSV replic up primary fold	Insulin prom inh	Insulin prom inh cell count	GALR2 ag
COc1ccc(C2Nc3cccc4cccc(c34)N2)cc1	-4	91	i	0.96	.	.	.
O=C(Nc1ccc(Cl)cn1)Nc1ccccc1Cl	1	104	i	0.84	0	119	-1.0
Cc1cc(Cl)ccc1C(=O)C1CCCN(C(=O)/C=C/c2cnn(C)c2)C1 (centres undefined)	1	102	i	1.1	.	.	.
CCCn1c(CCC(=O)O)ccc1-c1ccc(F)cc1	-12	103	i	1.2	10	204	1.6
O=C(O)c1cccnc1NC1CCCC1	0	110	i	0.92	12	136	-2.8
CCCCCn1c(=O)[nH]c2cc(C(=O)NCCCN3CCCCC3)ccc2c1=O	-4	100	i	0.79	-27	144	-1.4
Cc1cc(N2C(=O)C(O)=C(C(=O)c3ccco3)C2c2cccnc2)no1 (centres undefined)	-7	121	.	.	.	.	-1.6
Cc1ccccc1CSc1nnc(-c2cccnc2)n1N	-8	67	i	1.2	.	.	-1.3
O=C1CCCC(O)=C1N=Nc1cccc(S(=O)(=O)N2CCOCC2)c1	.	106	i	0.94	.	.	.
O=C(NC(=S)Nc1ccccn1)c1cccc([N+](=O)[O-])c1	.	103	i	1.1	.	.	.
O=C(Nc1nc2ccc(S(=O)(=O)N3CCCC3)cc2s1)C1CCCO1 (centres undefined)	-9	100	i	0.87	-50	93	-2.5
COC(=O)c1cn(-c2nc(C)c3c(n2)CCC3)nn1	-5	100	i	0.93	.	.	.
COc1ccc(N2C(=O)CC2(/C=C/c2ccccc2OC)C(=O)NC2CCCC2)cc1 (centres undefined)	-2	.	i	0.81	-281	52	-2.1
Cc1cc(C)n2nc3nc(N4CCCC4)nc(-c4ccccc4)c3c2n1	-2	97	i	0.73	12	133	1.1
CC(/C=C1\SC(=S)N(C(C(=O)O)C(C)C)C1=O)=C\c1ccccc1 (centres undefined)	1	107	i	0.94	14	85	.
O=C(O)/C(=C\c1cccc([N+](=O)[O-])c1)c1ccc(S(=O)(=O)N2CCCCC2)s1	.	105	i	1.1	.	.	.
CCOCCCNC(=S)Nc1cc(OCC)c(NC(=O)c2ccco2)cc1OCC	8	108	i	0.9	.	.	.
COc1cc(Cn2cnnn2)ccc1O	3	104	i	0.97	-55	149	-1.2
O=C(NCCCN1CCOCC1)c1cc2ccccc2o1	-7	98	i	0.96	-3	69	-0.5
O=C(Nc1ccccc1)NC1CCN(Cc2nnnn2C2CCCCC2)CC1	-7	104	i	1.2	.	.	-1.1
Cc1ccc(NC(=O)CN(C)S(=O)(=O)c2cccc3nsnc23)cc1C	-5	102	i	1.3	0	74	-0.8
COc1ccc(-c2nc(CS(=O)CC(=O)NCc3ccco3)c(C)o2)cc1 (centres undefined)	14	107	i	0.93	.	.	-2.8
Cc1ccc(OCC(=O)N/N=C/c2ccccc2)c([N+](=O)[O-])c1	6	94	i	1.3	62	150	.
COC(=O)c1[nH]c2ccc(C)cc2c1NC(=O)CN1CCCc2ccccc21	2	100	i	1	-166	94	-2.6
CC(C)N=Cc1c(O)[nH]c2ccccc12	17	96	i	0.82	-47	85	-1.6
O=[N+]([O-])c1ccc2c(c1)c1ccccc1n2CCO	.	100	i	0.66	.	.	.
Cc1cc(=O)[nH]c(SCC(=O)Nc2ccc(Br)cc2)c1C#N	2	103	i	0.97	7	160	-3.1
CC(C)CCN(C(=O)CNC(=O)c1cccs1)C(C(=O)NC1CCCCC1)c1cccnc1 (centres undefined)	.	98	i	0.86	.	.	.
S=C(NCCc1ccccc1)N1CCn2cccc2C1c1cccnc1 (centres undefined)	-1	105	i	0.96	-67	123	.
Cc1ccc(C2CC(=O)c3cnc(N4CCc5ccccc5C4)nc3C2)cc1 (centres undefined)	-4	107	i	0.9	-46	97	-3.6
CCCCNC(=O)C(=O)N/N=C/c1cccc(Br)c1	-8	101	i	1	36	116	-0.6
CC1CN(c2cc3nccnc3cc2F)CC(C)O1 (centres undefined)	-9	103	i	0.94	49	95	-1.8
CC1CCCCC1NC(=O)CSc1ccsc1[N+](=O)[O-] (centres undefined)	1	93	i	0.89	.	.	.
O=c1[nH]c(N2CCc3ccccc3C2)nc2c1CCCC2	-2	.	.	.	14	183	1.3
COc1ccc(CCNC(=O)C(C(=O)c2ccccc2)n2cc(Cl)ccc2=O)cc1OC (centres undefined)	0	105	i	0.85	3	97	-0.5
O=C(O)CSc1cnc2ccccc2n1	2	100	i	0.82	-6	101	-3.3
CCCCOC(=O)CCCc1ccc([N+](=O)[O-])cc1[N+](=O)[O-]	2	97	i	0.99	.	.	.
CC(C)CN1CCNC(=O)C1CC(=O)NCCCN1CCCc2ccccc21 (centres undefined)	-4	102	i	1.2	.	.	.
CCOC(=O)CN1C(=O)C(CC)Oc2ccc(Cl)cc21 (centres undefined)	-4	105	i	0.7	.	.	-0.3
COc1cccc(/C=N/NC(=O)c2[nH]nc3c2CCc2ccccc2-3)c1O	-6	100	i	0.8	.	.	1.6
O=[N+]([O-])c1ccc(COc2ccc(-c3[nH]ncc3-c3ccc(Cl)cc3)c(O)c2)cc1	-2	51	i	0.7	-97	45	-0.8
N#C/C(=N\Nc1ccccc1)C(=N)N1CCCCCC1	.	99	i	0.88	.	.	.
Nc1ncnc(Sc2ccc(Cl)cc2)c1[N+](=O)[O-]	-8	105	i	0.6	50	124	-1.6
O=C(c1ccccc1Cl)N1CCSCC1	.	106	i	1.1	.	.	.
CCOC(=O)CC(NC(=O)Cn1nnc(-c2ccccc2)n1)c1ccc(OC)cc1 (centres undefined)	-4	107	i	0.9	6	110	.
CN(C)c1ccc(Cl)cc1N	-3	102	i	0.96	.	.	.
O=C(NCCCN1CCOCC1)c1cc(C(=O)C2CC2)c[nH]1	-2	95	i	0.78	-34	73	-1.9
O=C(NCc1ccc2[nH]c3c(c2c1)CCCC3)N1CCOCC1	-13	96	i	1.1	.	.	-1.7

Sorted by heavy-atom count (rising): 3 of the compounds above
SMILES	PKD1 kinase inh	RGS16-Gao HTS	HSV replic up	HSV replic up primary fold	Insulin prom inh	Insulin prom inh cell count	GALR2 ag
O=C(c1ccccc1Cl)N1CCSCC1	.	106	i	1.1	.	.	.
Nc1ncnc(Sc2ccc(Cl)cc2)c1[N+](=O)[O-]	-8	105	i	0.6	50	124	-1.6
O=C(NCc1ccc2[nH]c3c(c2c1)CCCC3)N1CCOCC1	-13	96	i	1.1	.	.	-1.7

Next compounds.
SMILES	PKD1 kinase inh	RGS16-Gao HTS	HSV replic up	HSV replic up primary fold	Insulin prom inh	Insulin prom inh cell count	GALR2 ag
CC(=O)Nc1ccc(S(=O)(=O)N2CCSC2c2ccccc2Cl)cc1 (centres undefined)	20	105	i	0.99	45	51	-0.3
C=CCN(CC=C)C(=S)NC(=O)/C=C/c1ccc(C)cc1	-3	112	i	1	8	126	0.3
COc1ccc(C[C@@H]2CN3C(=NC[C@@H]3C)N2CCNC(=O)c2ccc(C)c(Br)c2)cc1	8	94	i	0.89	.	.	.
CCCCCCOc1ccc(C(=O)O)cc1	.	96	i	1.1	.	.	.
CN(C)/C=N/c1c(C#N)cnn1-c1ncnc2sc(-c3ccccc3)cc12	3	94	i	0.95	.	.	-2.8
CCC(=O)OC1(C)C(=O)C2=COC(c3ccc(OC)cc3)=CC2=C(Br)C1=O (centres undefined)	.	99	i	0.92	.	.	.
CCN(CC)S(=O)(=O)c1cc(C(=O)Nc2ccncc2)ccc1Cl	14	99	i	0.99	33	69	-0.4
COc1ccc(Br)cc1/C=C/C(=O)NC(=S)Nc1ccc(Cl)c(C(=O)O)c1	2	90	i	0.97	53	74	.
Cc1cc2ncn(C(=O)N3CCOCC3)c2cc1C	-6	98	i	0.74	-52	102	-0.3
O=c1c(-c2ccccc2)coc2c(CN3CCOCC3)c(O)ccc12	-5	100	i	1.1	-22	102	-1.5
Cc1cc(-c2nnc(SCC(=O)NC3CCCC3)o2)no1	-2	92	i	1.1	.	.	-0.8
CN(C)CCCN1C(=O)C2CCc3[nH]c4ccccc4c3C2C1=O (centres undefined)	3	105	i	1.1	.	.	.
O=C1COc2ccccc2CN1	-5	76	i	1.1	-14	69	-2.4
CO/N=C(/CS(=O)Cc1ccc(Cl)cc1)c1ccc(Cl)cc1 (centres undefined)	-11	102	i	0.92	.	.	-1.4
Cc1cccc(C)c1NC1=C(Cl)C(=O)OC1OC(=O)c1ccccc1 (centres undefined)	0	106	i	0.92	11	180	.
CC1CCc2nc(NC(=O)CCSc3ccccc3)sc2C1 (centres undefined)	-12	20*	i	0.86	.	.	-3.1
COc1ccc(NC(=O)c2cc3c(Cl)nc4ccccc4c3s2)c(OC)c1	0	98	i	0.96	17	99	0.0
COC(=O)CSc1nc2c(c(-c3ccc(O)cc3)c1C#N)CCCC2	7	101	i	1	-67	55	.
CCOc1ccccc1NC(=O)N1C2CCCC1CC(NC(=O)C1CC1)C2 (centres undefined)	-13	98	i	0.88	55	98	0.2
CNC(=O)C1CCC(=O)N1Cc1ccc(C)cc1 (centres undefined)	0	106	i	0.99	-4	97	-1.0
COC(C(=O)Nc1ccc(C(C)=O)cc1)c1ccccc1 (centres undefined)	-13	83	i	1	-3	66	0.2
Cc1ccc2nc(-c3ccc(N4C(=N)SC5CS(=O)(=O)CC54)cc3)sc2c1 (centres undefined)	-7	101	i	1	.	.	0.9
CCCOC(=O)c1ccc(N2C(=O)c3ccccc3C2=O)cc1	1	107	i	1	45	107	-1.0
O=C(NCc1cccnc1)c1ccccc1-c1nc(-c2ccccc2)no1	-5	102	i	1.1	.	.	.

2 records drawn at random from the list so far:
SMILES	PKD1 kinase inh	RGS16-Gao HTS	HSV replic up	HSV replic up primary fold	Insulin prom inh	Insulin prom inh cell count	GALR2 ag
CCOc1ccccc1NC(=O)N1C2CCCC1CC(NC(=O)C1CC1)C2 (centres undefined)	-13	98	i	0.88	55	98	0.2
Cc1cccc(C)c1NC1=C(Cl)C(=O)OC1OC(=O)c1ccccc1 (centres undefined)	0	106	i	0.92	11	180	.

Next results:
SMILES	PKD1 kinase inh	RGS16-Gao HTS	HSV replic up	HSV replic up primary fold	Insulin prom inh	Insulin prom inh cell count	GALR2 ag
O=C(c1ccccc1)N1CCC(c2nc(-c3ccc(S(=O)(=O)N4CCOCC4)cc3)no2)CC1	-1	102	i	1	-14	115	-1.1
O=C(c1ccccc1Br)N1CCC(c2nc3ccccc3s2)CC1	1	102	i	0.82	29	82	.
Cc1ccc(S(=O)(=O)C2CCCCC2=O)cc1 (centres undefined)	-9	106	i	1	-94	143	-1.6
O=C(c1cc2nc(-c3cccs3)cc(C(F)(F)F)n2n1)N1CCCc2ccccc21	-12	118	i	1	.	.	-1.1
CSc1nc2ccc(S(=O)(=O)N3CCc4ccccc43)cc2s1	-6	98	i	0.98	50	100	-2.1
COc1ccc(C2C(C(C)=O)=C(O)C(=O)N2c2cccnc2)c(OC)c1 (centres undefined)	-3	102	i	0.82	45	116	-0.9
COc1ccc(NC(=O)c2cccc(S(=O)(=O)N(C)c3ccccc3)c2)cn1	-1	91	i	0.89	-54	97	-1.5
O=C(Nc1ccncc1)c1cc2ccccc2o1	-6	100	i	0.95	-342	93	-1.0
O=C(NCC1CCN(c2ccc(S(=O)(=O)N3CCOCC3)cc2)CC1)c1ccc(Cl)cc1	-5	102	i	0.93	-71	72	0.8
O=C(NNC(=O)c1oc2ccccc2c1-n1cccc1)c1ccco1	-2	98	i	0.89	.	.	.
CC(=O)Nc1ccc(OCc2nnc(-c3ccc(Cl)cc3)o2)cc1	0	95	i	1.1	45	101	.
Cn1nnc2cc(C(=O)N3CCCCCC3)ccc21	2	99	i	0.91	-186	68	-1.4
CCC(C)NC(=O)c1ccccc1NC(=O)C1COc2ccccc2O1 (centres undefined)	2	102	i	0.93	.	.	.
Cc1onc(-c2ccccc2Cl)c1C(=O)NC(=S)NCCc1ccccc1	3	109	i	0.92	-31	102	-0.1
